High-throughput results deposited in PubChem by several laboratories.
PKD1 kinase inh: inhibitors of human PKD1 kinase; Q15139; PKD1 kinase fluorescence polarization assay; inhibition, %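 (about 10 µM by stock and volumes)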; hit rate 0.056% among 200,000;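 active = inhibition of 50% or more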;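 note: controls were vehicle for no effect and a reference inhibitor for full effect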
INS promoter inh: TRM-6 insulin promoter activity inhibition; TRM-6 cells (human fetal islet line), insulin promoter-eGFP reporter, imaging; reporter expression induced with tamoxifen; inhibition, % at 2 µM; hit rate 0.9% among 130,000; AID 1273;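 active = inhibition above the mean plus 3 SD, with well images judged a real hit on visual review, cut at about 60% in these data, passing the limit was not always enough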
RGS16-Gao HTS: regulators of human RGS16-Galphao interaction; O15492+P09471; bead-based flow cytometry RGS16-Galphao binding, fluorescence; actives lie on both sides; binding response (% of control), % at 10 µM; hit rate 0.38% among 220,000;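 active = below 25% or above 175%, edge rows of some plates excepted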;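 note: Galphao activated by GDP with aluminum fluoride before binding; 100% = wells without compound and 0% = beads without RGS; some results beyond the cut were filed as inactive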
Target sequence (O15492 whole entry, looked up): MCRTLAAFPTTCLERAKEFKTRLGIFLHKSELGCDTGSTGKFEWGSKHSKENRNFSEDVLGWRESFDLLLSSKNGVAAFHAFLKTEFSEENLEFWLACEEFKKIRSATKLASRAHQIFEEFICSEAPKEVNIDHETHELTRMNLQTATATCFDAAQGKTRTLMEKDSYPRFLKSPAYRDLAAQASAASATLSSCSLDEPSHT
Target sequence (P09471 whole entry, looked up): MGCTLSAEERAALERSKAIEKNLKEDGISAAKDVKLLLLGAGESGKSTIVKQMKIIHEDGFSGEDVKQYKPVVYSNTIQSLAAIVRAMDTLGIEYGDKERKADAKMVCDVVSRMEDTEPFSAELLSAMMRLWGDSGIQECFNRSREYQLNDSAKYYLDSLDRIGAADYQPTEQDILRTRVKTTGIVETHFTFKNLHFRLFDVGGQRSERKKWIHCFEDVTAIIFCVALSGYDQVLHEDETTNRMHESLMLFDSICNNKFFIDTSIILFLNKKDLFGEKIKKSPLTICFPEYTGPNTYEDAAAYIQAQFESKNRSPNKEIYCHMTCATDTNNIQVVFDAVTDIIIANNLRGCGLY
HSV augment: HSV replication enhancement; HSV replication augmentation in cells, fold increase; maximum fold increase; hit rate 0.005% among 220,000; AID 1956;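 active = peak rise of 1.5-fold or more in the series; tested in PC3 cells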;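 note: first round at 10 µM; read as green reporter fluorescence; hits show the peak of a series up to 25 µM; 1 = signal of infected wells without compound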
GALR2 agonist: activates the human galanin receptor 2. AID 803. hit rate 0.48% among 140,000. GALR2-expressing cells, agonist activation read-out. O43603. activation, %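 (tested at 5 µM)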;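 active = above mean plus 3 SD of all compounds, about 5% in these data, not always enough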;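 note: 0% = vehicle buffer wells and 100% = reference agonist at full effect; tested in CHO reporter cells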
Target sequence (O43603 whole entry, looked up): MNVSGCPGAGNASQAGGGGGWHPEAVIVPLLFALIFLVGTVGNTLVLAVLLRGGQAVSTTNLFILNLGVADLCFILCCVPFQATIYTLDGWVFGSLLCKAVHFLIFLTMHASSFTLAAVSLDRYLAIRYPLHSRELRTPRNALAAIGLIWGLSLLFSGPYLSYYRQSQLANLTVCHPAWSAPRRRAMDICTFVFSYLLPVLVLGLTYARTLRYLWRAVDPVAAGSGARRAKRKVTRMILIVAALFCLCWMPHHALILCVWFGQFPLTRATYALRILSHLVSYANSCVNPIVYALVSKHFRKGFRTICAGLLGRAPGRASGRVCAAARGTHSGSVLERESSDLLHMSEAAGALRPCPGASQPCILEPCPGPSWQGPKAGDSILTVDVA
INS promoter inh cell count: also measured in INS promoter inh; calls as there; normalized cell count, %; measured here: cell count, toxicity; reference of the scale not given here;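 cells exposed to compound for 48 h; stained nuclei by imaging scaled within each plate; lower means fewer cells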
HSV augment primary fold: also measured in HSV augment; calls as there; fold increase; compound at 10 µM; measured here: primary screen fold increase 10 uM; tested in PC3 cells;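 GFP signal in the first replicate; 1 = infected wells without compound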
* hit, by the source's call; i = inactive; x = no result given; & = joins results of further samples. Outcome played no part in choosing rows; overall some 1.3% were active at least once.

Below each SMILES – PKD1 kinase inh, INS promoter inh, INS promoter inh cell count, RGS16-Gao HTS, HSV augment, HSV augment primary fold, GALR2 agonist
> CCOC(=O)c1c(C2CC2)csc1NC(=O)CSCc1c(C)noc1C
    1, x, x, 103, i, 0.91, -1.4
> COc1ccc([N+](=O)[O-])cc1NC(=O)C(C)N(C)Cc1ccc(Br)cc1 (centres undefined)
    -6, -46, 130, 103, i, 0.74, -0.9
> O=C(CCc1nc(-c2cccs2)no1)Nc1cnc2ccccc2c1
    -7, 22, 129, 71, i, 1, -2.5
> Cc1nc(-c2ccc(S(=O)(=O)N3CCN(CCc4ccccc4)CC3)s2)cs1
    x, x, x, 109, i, 1, x
> CCn1c(SCC(=O)N/N=C/c2c[nH]c3ccccc23)nnc1-c1ccc(Cl)cc1
    -7, -38, 108, 102, i, 0.77, -1.6
> COc1ccc(F)c(CN2CCC(CO)(Cc3cccc(C(F)(F)F)c3)CC2)c1
    10, x, x, 99, i, 0.84, x
> COc1ccc(N2CC(C(=O)Nc3cccc(C)n3)CC2=O)cc1 (centres undefined)
    2, -14, 102, 101, i, 0.97, x
> O=C1c2ccccc2-c2n[nH]c(=O)c3ccc(N4CCCCC4)c1c23
    5, x, x, 103, i, 0.62, x
> N#C/C(=C/c1ccncc1)c1nc2ccccc2c(=O)[nH]1
    x, x, x, 102, i, 0.98, x
> CCOC(=O)C1CCN(C(=O)c2cn(-c3ccccc3)nc2-c2cccnc2)CC1
    -8, x, x, x, x, x, -1.8
> Cc1cc(Cl)ccc1OCCCC(=O)NO
    -6, 12, 89, 105, i, 1, -2.1
> CCOc1ccc(CN(C)CC(=O)Nc2cccc(C)c2)cc1OC
    -3, x, x, 102, i, 0.89, x
> Cc1cc(NS(=O)(=O)c2ccc(NC(=O)C(C)Oc3ccc(Cl)cc3)cc2)no1 (centres undefined)
    -4, -3, 93, 99, i, 1, -1.5
> Cc1ccccc1SCC(=O)N1CCN(c2ccc(C(F)(F)F)cn2)CC1
    4, x, x, 102, i, 1, 0.8
> Cc1ccc(NC(=S)Nc2cccc3cnccc23)cc1C
    7, x, x, 109, i, 0.7, x
> CCOC(=O)Cn1cc(/C=N/NC(=O)CC#N)c2ccccc21
    x, x, x, 95, i, 0.98, x
> CC(=O)N1CCC(Nc2ccc(C)cc2)CC1
    -11, x, x, 105, i, 0.9, -2.4
> Cc1sc2nc(CN3CCOCC3)[nH]c(=O)c2c1-c1ccccc1
    -7, -37, 100, 95, i, 0.99, 0.7
> COc1ccc2c(c1)CCc1c(C(=O)N3CCCCCC3)noc1-2
    -32, -7, 142, 111, i, 0.8, -2.7
> CCc1nnc(NC(=O)c2ccc(S(=O)(=O)N3CCc4ccccc4C3)cc2)s1
    -13, -27, 2, 98, i, 0.88, -2.2

Below each SMILES – PKD1 kinase inh, INS promoter inh, INS promoter inh cell count, RGS16-Gao HTS, HSV augment, HSV augment primary fold, GALR2 agonist
> Cc1ccc(C(=O)N/N=C/c2ccc(N3CCOCC3)cc2)c(C)c1
    -1, 33, 110, 110, i, 0.87, x
> Cc1cc(-c2ccco2)n(CC(=O)NCc2ccccc2)n1
    8, x, x, 113, i, 0.94, -2.5
> CCC1(C)Cc2c(c(=O)n(-c3ccccc3)c3ncnc(N)c23)CO1 (centres undefined)
    4, 54, 118, 97, i, 1, -1.6
> O=C(Nc1cccc([N+](=O)[O-])c1)c1ccc2c(c1)OCCO2
    -7, 5, 168, 102, i, 0.97, 0.2
> Nc1cc(=O)[nH]c(SCCOc2ccccc2)n1
    0, x, x, 106, i, 0.74, x
> CCOc1cccc(-c2cc(C(=O)N/N=C/c3ccc(OC)c(CN4CCOCC4)c3)c3ccccc3n2)c1
    -2, 9, 74, 140, i, 0.71, -0.1
> Cc1cc(NC(=O)c2cc3n(n2)C(C(F)(F)F)CC(c2ccco2)N3)no1 (centres undefined)
    -3, x, x, 101, i, 1.1, -2.9
> CCOc1ccc(NC(=O)c2nn(C)cc2Br)cc1
    -8, 43, 121, 98, i, 1.1, -1.2
> O=S(=O)(c1ccc(Cl)cc1)N(CCCN1CCOCC1)Cc1cccs1
    -1, 29, 119, 99, i, 0.99, x
> Cc1ccccc1Cn1c2ccccc2c2cnn(CC(=O)N3CCN(c4ccccc4)CC3)c(=O)c21
    16, x, x, 105, i, 0.71, -2.2
> CCCCNC(=O)CSc1cc(=O)n(C)c2ccccc12
    5, x, x, 107, i, 0.99, -1.5
> Cc1ccc(S(=O)(=O)NCc2c(Cl)cccc2Oc2ccccc2)cc1
    x, x, x, 100, i, 1, x
> CC1=NN(C(=O)c2ccc(Cn3ccc([N+](=O)[O-])n3)cc2)C(O)(C(F)(F)F)C1 (centres undefined)
    -9, x, x, 108, i, 0.95, 0.3
> Nc1nc(Nc2ccccc2)nc(NCCO)c1[N+](=O)[O-]
    x, x, x, 99, i, 0.82, x
> COc1ccc(-c2csc(NC(=O)CCCc3cccs3)n2)cc1
    -5, x, x, 103, i, 0.98, -0.6
> Cn1nnc2cc(C(=O)NC3CCCCC3)ccc21
    -12, 14, 99, 99, i, 1, -3.1
> Cc1n[nH]c(C)c1S(=O)(=O)N1CCN(C(=O)c2ccco2)CC1
    -10, x, x, 98, i, 1, -2.0
> c1ccc2c(c1)CCOC2CNCCCN1CCCCC1 (centres undefined)
    -4, 16, 134, x, i, 0.77, -0.1
> O=C(C1CCCN(S(=O)(=O)c2cnc[nH]2)C1)N1CC(=O)N(CCc2ccccc2)C(=O)C1 (centres undefined)
    13, x, x, 101, i, 1, 0.4
> CCOC(=O)c1cc2c(nc1NC(=S)Nc1ccccc1)CC(C)(C)OC2
    -12, x, x, 106, i, 0.97, -0.2

The final 2 entries of the section before come first, to join the parts:
Below each SMILES – PKD1 kinase inh, INS promoter inh, INS promoter inh cell count, RGS16-Gao HTS, HSV augment, HSV augment primary fold, GALR2 agonist
> O=C(C1CCCN(S(=O)(=O)c2cnc[nH]2)C1)N1CC(=O)N(CCc2ccccc2)C(=O)C1 (centres undefined)
    13, x, x, 101, i, 1, 0.4
> CCOC(=O)c1cc2c(nc1NC(=S)Nc1ccccc1)CC(C)(C)OC2
    -12, x, x, 106, i, 0.97, -0.2
> O=C(CC1Oc2ccccc2NC1=O)NCCCN1CCN(Cc2ccccc2)CC1 (centres undefined)
    6, x, x, 99, i, 1, -0.7
> CCC(C)C(=O)Nc1nc(C)c(-c2csc(Nc3ccc(Cl)cc3)n2)s1 (centres undefined)
    1, 22, 161, 103, i, 0.91, -3.5
> O=C(NCc1ccco1)c1c2c(nc3ccccc13)CCC2
    -6, 13, 115, 75, x, x, -2.5
> CCOc1ccc2nc3c(cc2c1)CN(CCOC)C(=NCCOC)S3
    -2, 6, 173, 90, i, 1, 0.4
> CCOc1ccc(Oc2nc(C)cc(OC)n2)nn1
    -11, 29, 107, 98, i, 0.95, -2.7
> COC(=O)C(Cc1ccc(O)cc1)NC(=O)C(C)Oc1ccccc1 (centres undefined)
    1, 45, 111, 109, i, 0.85, -0.6
> CCc1cc2cc(C)c(C)cc2nc1SCC(=O)Nc1cc(C)on1
    -7, x, x, 104, i, 0.7, x
> CCOc1ccc(C(=O)COC(=O)CC)cc1
    -6, 7, 63, 97, i, 1.1, -0.9
> COc1ccc(C)cc1S(=O)(=O)N(CC(=O)O)c1ccc(C)cc1
    -10, 59, 156, 102, i, 1.1, -3.5
> O=C(NCc1ccco1)c1ccc(-c2ccc(Cl)cc2)o1
    1, -71, 152, 107, i, 1, x
> COc1ccc(Nc2nnc(SC(C(=O)Nc3cc(C)ccc3C)c3ccccc3)s2)cc1 (centres undefined)
    -12, x, x, 102, i, 0.95, x
> COc1ccccc1Nc1nc(NCCC(C)C)nc(N)c1[N+](=O)[O-]
    x, x, x, 103, i, 0.77, x
> C/C(=N\NC(=O)COc1ccccc1F)c1cc2ccccc2o1
    -4, -50, 125, 103, i, 0.87, -1.8
> Nc1nc(CSc2ncccn2)nc(Nc2ccccc2)n1
    2, 25, 119, 99, i, 0.74, -1.2
> CC(=O)c1ccc(N=Nc2ccc(C)cc2)cc1
    -2, x, x, 98, i, 0.98, x
> C=CCN1c2ccccc2[C@]23C[C@@H](C(=O)OC)N(C(=O)NCCC)C2=NC(C(=O)OC)=C(C(=O)OC)[C@H]13
    x, x, x, 99, i, 0.94, x
> C=CCN(c1ccc(C(=O)N2CCCC2)cc1)S(C)(=O)=O
    -6, 9, 111, 97, i, 1, -2.0
> c1ccc(CNc2ncnc3sc4c(c23)CCCC4)nc1
    -2, -7, 100, 108, i, 0.9, x
> O=C(Nc1ccc2c(c1)OCCO2)c1ccc(NC(=O)C2CCCO2)cc1 (centres undefined)
    8, x, x, 96, i, 1.1, -1.3
> CCOc1ccc(NC(=O)Nc2cccc(C(=O)O)c2)cc1
    -5, 9, 83, 104, i, 0.94, x

Below each SMILES – PKD1 kinase inh, INS promoter inh, INS promoter inh cell count, RGS16-Gao HTS, HSV augment, HSV augment primary fold, GALR2 agonist
> O=C(OCC(F)(F)F)c1cccc(COc2ccc3ccccc3c2)c1
    -5, 24, 62, 104, i, 0.97, -3.0
> O=C(NCCc1ccccc1)C(=O)Nc1nccs1
    -16, 48, 48, 137, i, 1.1, -1.3
> Cc1ccc(N=C2NC(=O)/C(=C/c3cccnc3)S2)c(C)c1
    x, x, x, 100, i, 0.87, x
> O=[N+]([O-])c1ccc2oc(-c3ccccc3)nc2c1
    3, 0, 129, 102, i, 0.92, x
> Cc1cn([C@H]2C=C[C@@H](CO)O2)c(=O)[nH]c1=O
    9, -14, 99, 102&92, i, 0.84, -0.8
> CC1(C)OC2OC(C(=O)N/N=C/c3ccccc3F)C3OC(C)(C)OC3C2O1 (centres undefined)
    -3, -12, 70, 100, i, 0.83, -0.7
> CN(CCOC(=O)c1ccc2c(c1)OCCO2)Cc1ccccc1
    0, 39, 132, 104, i, 1, -3.0
> O=C1N/C(=N/N=C/c2ccc(O)cc2)SC1Cc1ccccc1 (centres undefined)
    x, x, x, 107, i, 0.97, x
> O=C(Oc1ccccc1OC(=O)N1CCOCC1)N1CCOCC1
    -2, -52, 90, 103, x, x, -0.8
> O=C(CSc1ncccc1-c1nc2ccccc2[nH]1)N1CCc2ccccc21
    -9, 3, 66, 62, i, 0.86, -1.3
> CC(C)CCNC(=S)NC1CCCC1
    -11, 7, 112, 83, i, 0.82, -1.2
> COc1cc(C)nc(OCCNC(=O)COc2ccc(Cl)cc2Cl)n1
    -6, -30, 127, 103, i, 0.98, -1.0
> Cc1cccc(NC(=O)CCSc2ccccn2)c1
    -4, 10, 130, 100, i, 1, -0.2
> Cc1onc(-c2c(Cl)cccc2Cl)c1C(=O)c1c[nH]c(C(=O)NC2CC2)c1
    -4, 41, 81, 103, i, 0.81, -1.4
> O=C(Nc1ccccc1)c1cc([N+](=O)[O-])ccc1NC1CCCCC1
    6, 53, 79, 101, i, 1, -0.1
> CCOc1ccc(Nc2nc(Cl)nc(NCCO)n2)cc1
    -8, x, x, 133, i, 0.97, 0.5

Five entries already listed, ordered by molecular weight, highest first:
Below each SMILES – PKD1 kinase inh, INS promoter inh, INS promoter inh cell count, RGS16-Gao HTS, HSV augment, HSV augment primary fold, GALR2 agonist
> Cc1onc(-c2c(Cl)cccc2Cl)c1C(=O)c1c[nH]c(C(=O)NC2CC2)c1
    -4, 41, 81, 103, i, 0.81, -1.4
> CC1(C)OC2OC(C(=O)N/N=C/c3ccccc3F)C3OC(C)(C)OC3C2O1 (centres undefined)
    -3, -12, 70, 100, i, 0.83, -0.7
> O=C(OCC(F)(F)F)c1cccc(COc2ccc3ccccc3c2)c1
    -5, 24, 62, 104, i, 0.97, -3.0
> O=C(Nc1ccccc1)c1cc([N+](=O)[O-])ccc1NC1CCCCC1
    6, 53, 79, 101, i, 1, -0.1
> CC(C)CCNC(=S)NC1CCCC1
    -11, 7, 112, 83, i, 0.82, -1.2
